Assay outcomes: PubChem, Emory University Molecular Libraries Screening Center
Measles inh = inhibitors of measles virus growth in infected cells; infected Vero cells, GFP fluorescence, 64 h; hits give low values; z-score (no concentration beside the values); 33,000 tested, 0.1% active;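 active = z-score under -3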;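 also: score is relative to mean and SD of the compound wells of a plate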
* marks the source's active call; other numbers are inactive results. These rows are one share of the data (hit frequency here may not be typical).

Preview:
Measles inh,Molecule
-0.69,COC(=O)c1c(NC(=O)c2c(OC)cccc2OC)sc(C)c1C
-0.15,CC(=O)Nc1ccc(N2C(=O)C3C4c5ccccc5C(c5ccccc54)C3(C)C2=O)cc1 (configuration not stated)
-0.16,O=S(=O)(c1ccc(Cl)cc1)c1nc(-c2ccccc2Cl)oc1N1CCCCC1
-0.81,CCOc1ccc(C(=O)Nc2c3c(nn2-c2ccccc2C)CSC3)cc1
-0.8,Cc1nc(N2CCCCC2)c2c(C)c(C(=O)N3CCC(C)CC3)sc2n1
0.08,COc1ccc(N2CCN(C(=O)c3cn(C)c(=O)c4cc(OC)c(OC)cc34)CC2)cc1

Results, previewed entries included:
Measles inh,Molecule
-0.69,COC(=O)c1c(NC(=O)c2c(OC)cccc2OC)sc(C)c1C
-0.15,CC(=O)Nc1ccc(N2C(=O)C3C4c5ccccc5C(c5ccccc54)C3(C)C2=O)cc1 (configuration not stated)
-0.16,O=S(=O)(c1ccc(Cl)cc1)c1nc(-c2ccccc2Cl)oc1N1CCCCC1
-0.81,CCOc1ccc(C(=O)Nc2c3c(nn2-c2ccccc2C)CSC3)cc1
-0.8,Cc1nc(N2CCCCC2)c2c(C)c(C(=O)N3CCC(C)CC3)sc2n1
0.08,COc1ccc(N2CCN(C(=O)c3cn(C)c(=O)c4cc(OC)c(OC)cc34)CC2)cc1
-1.7,Cc1ccc(S(=O)(=O)Nc2cc(C(=O)NCCc3ccccc3)ccc2N2CCCCC2)cc1
-1.57,Nc1c(N2CCCCC2)c2ccccc2oc1=O
-0.13,CCOc1ccc(CN2CCN(Cc3ccccn3)CC2)cc1
-0.72,O=C(Nc1cccc(Cl)c1)c1c(O)c2c([nH]c1=O)CCCC2
-1.46,O=C(CN1C(=O)c2ccccc2S1(=O)=O)Nc1ccc(O)cc1
2,CCOCCCNc1c(-c2ccccc2)nc2cnccn12
-0.54,CNC1=C(n2nnc3ccccc32)C(=O)c2ccccc2C1=O
-0.15,COc1ccc(C(=O)CSc2nc(C)cc(C)c2C#N)cc1
-1.13,CCCOc1ccccc1C1NC(=O)NC(C)=C1C(=O)OCCCBr (configuration not stated)
-0.66,CC(=O)Nc1ccc(NC(=O)c2ccc(Cl)c([N+](=O)[O-])c2)cc1
-1.75,O=C(Nc1cccc(O)c1)c1noc2c1CCCCC2
-0.39,COc1cccc2cc(C(=O)Nc3sc(C)c(-c4ccccc4)c3C(N)=O)c(=O)oc12
-0.02,COc1ccc(C(=O)Nc2cccc(NC(=O)c3ccco3)c2)cc1OC
1.37,CN(C)c1c([N+](=O)[O-])c(=O)oc2ccccc12

Structural class: the entries above with a Cl atom
Measles inh,Molecule
-0.16,O=S(=O)(c1ccc(Cl)cc1)c1nc(-c2ccccc2Cl)oc1N1CCCCC1
-0.72,O=C(Nc1cccc(Cl)c1)c1c(O)c2c([nH]c1=O)CCCC2
-0.66,CC(=O)Nc1ccc(NC(=O)c2ccc(Cl)c([N+](=O)[O-])c2)cc1

Carrying on:
Measles inh,Molecule
1.06,CCC1Oc2ccccc2N(CC(=O)NCCCN2CCCCC2CC)C1=O (configuration not stated)
0.07,CC(=O)N(C(C)=O)c1ncc2c([nH]c3ccccc32)c1C#N
-0.08,Cc1c(C(=O)O)ccc2c1NC(c1ccccc1F)C1CC=CC21 (configuration not stated)
1.58,CC(C)CCNC(=O)C1CCCN(c2nc3ccccc3o2)C1 (configuration not stated)
-1.66,Cc1ccc(C(C)(C)C)c(OCC(=O)Nc2ccccc2C(F)(F)F)c1
-0.61,Cc1cc(NC(=O)CSc2nc3ccc(Br)cc3c3nc4ccccc4n23)no1
-0.89,CCOC(=O)c1c(NCc2ccccc2O)sc2c1CCCC2
-0.39,CC(C)CN(CC(C)C)C(=O)CN1C(=O)c2ccccc2C1=O
-1.74,CN(C)S(=O)(=O)n1cc[n+](C)c1
-0.32,CCOC(=O)c1c(Cl)nc(Cl)c(Cl)c1Nc1ccc(OC)cc1
-1.02,CN(C1CCS(=O)(=O)C1)S(=O)C12CC3CC(CC(C3)C1)C2 (configuration not stated)
0.8,COc1ccc(Nc2cc(C(=O)NCc3ccco3)c3ccccc3n2)c(OC)c1
0.09,COc1cc(C2CC(=O)Nc3c2cc(Br)c2ccccc32)cc(Br)c1OC (configuration not stated)
-0.2,CC(C)(O)C#Cc1ccc(C(=O)NCCc2ccc(S(N)(=O)=O)cc2)cc1
2.24,O=C(Oc1ccccc1)Oc1cc2oc(=O)sc2cc1Cl
0.39,O=C(CN1CCOCC1)Nc1ccc(S(=O)(=O)N2CCOCC2)cc1
-1.06,CCCCCCN1C(=O)C(O)=C(C(C)=O)C1c1ccccc1Cl (configuration not stated)
-0.46,CCN(Cc1ccccc1)C(=O)CCN1C(=S)NC(C)(C)CC1C (configuration not stated)
-1.14,Cc1ccc(S(=O)(=O)Nc2ccc(C)c(C)c2)cc1
-0.57,COCC(O)Cn1c2ccccc2c2ccccc21 (configuration not stated)
-0.17,Cc1ccc2c(c1)C(C)(c1ccccc1)CC(C)(C)N2C(=O)CN1C(=O)C2CCCCC2C1=O (configuration not stated)
1.45,COc1ccc(-c2nc3cc(NC(=O)Cc4ccccc4)ccc3o2)cc1Cl
0.73,CCCCC1=NN(C(=O)COc2cc(C)cc(C)c2)C(O)(C(F)(F)F)C1 (configuration not stated)
1.43,CC1=C(C(=O)OCc2ccccc2)C(c2ccccc2[N+](=O)[O-])CC(=O)N1 (configuration not stated)
-0.41,Cc1ccc(-n2c(-c3ccco3)n[nH]c2=S)cc1
-0.14,Cc1c(C(=O)NCc2ccccc2)oc2ccc(S(=O)(=O)N3CC(C)CC(C)C3)cc12 (configuration not stated)
-0.34,CCCCCn1c(=O)[nH]c2cc(C(=O)NCc3cccs3)ccc2c1=O
-0.19,CN(C)c1ccc(CN)cc1
0.63,O=C(c1ccc(F)cc1)N1CCN(Cc2ccc3c(c2)OCO3)CC1
-0.8,O=C(Nc1ccc(Cl)cc1)c1cc(S(=O)(=O)N2CCCc3ccccc32)ccc1F
0.06,CCN(CC)c1ccc(C2C(C(=O)OC)=C(C)NC3=C2C(=O)CC(c2ccccc2)C3)cc1 (configuration not stated)
-0.32,O=C(NCCSc1c(-c2ccccc2)[nH]c2ccccc12)c1cccs1
-0.54,CC1CCc2cc(F)cc3c(O)c(C(=O)Nc4cccnc4)c(=O)n1c23 (configuration not stated)
1.33,CSc1cccc(NC(=O)C2(S(=O)(=O)c3ccc(C)cc3)CC2)c1
-0.36,c1ccc(Cn2c3c(c4ccccc42)CCc2nonc2-3)cc1
0.95,O=C(CSc1nc2c(c(=O)n1-c1ccc(F)cc1)SCC2)NCC1CCCO1 (configuration not stated)
-0.86,CCOC(=O)C1=C(C)Nc2nc(SCc3ccccc3)[nH]c(=O)c2C1c1ccc([N+](=O)[O-])cc1 (configuration not stated)
0,CCc1ccccc1NC1=CC(=O)CC(C)(C)C1
0.14,COC(=O)c1c(NC(=O)c2cc(Cl)ccc2OC)sc(C)c1C
-0.06,O=[N+]([O-])c1nn(-c2ccccc2)n(O)c1=NCc1ccco1

2 entries from above, with each value named.
CCOC(=O)C1=C(C)Nc2nc(SCc3ccccc3)[nH]c(=O)c2C1c1ccc([N+](=O)[O-])cc1 (configuration not stated)
  Measles inh = -0.86

CC1=C(C(=O)OCc2ccccc2)C(c2ccccc2[N+](=O)[O-])CC(=O)N1 (configuration not stated)
  Measles inh = 1.43

Next section
Measles inh,Molecule
-0.81,COc1ccc(C2CC(=O)C3=C(C2)NC(C)=C(C(=O)OC2CCCC2)C3c2cccc([N+](=O)[O-])c2)cc1OC (configuration not stated)
0.3,COc1ccc(CNC(=O)c2cnn3c(C)c(Cc4ccccc4C)c(C)nc23)cc1
0.24,Cc1nc(N=C(N)N)nc2cc3c(cc12)OCO3
2.02,CCC(C)(NC(=O)c1ccccn1)C(=O)NC1CCCC1 (configuration not stated)
2.7,CC(C)CNC(=O)c1sc(=S)n(-c2ccc(Cl)cc2)c1N
-0.32,N#CCCN(CCN1CCCC1)S(=O)(=O)c1ccc(-c2ccc([N+](=O)[O-])cc2)cc1
-1.11,CCOC(=O)C1C(=O)C=C(c2ccc(C)cc2)CC1c1ccccc1OC (configuration not stated)
-0.37,C=CCNC(=O)N1c2ccccc2Sc2ccccc21
-0.79,O=C(Nc1ccc(Cl)c([N+](=O)[O-])c1)C1CC(=O)N(c2ccc(Cl)cc2)C1 (configuration not stated)
1.35,Cc1ccccc1N=c1oc2ccc(Br)cc2cc1C(N)=O
0.22,COc1ccc(C(=O)C[n+]2ccc(C(=O)NCCO)cc2)cc1
-0.2,O=S(=O)(c1cccs1)N(Cc1ccccc1)Cc1ccccc1
0.91,CC1CC(C)CN(S(=O)(=O)N2CCCC(C(=O)NCc3ccc(F)cc3)C2)C1 (configuration not stated)
0.86,CCOc1ccc(C2Nc3ccc4ccccc4c3C3=C2C(=O)CC(C)(C)C3)cc1OC (configuration not stated)
-1.13,CCOC(=O)C1C(=O)CC(C)(O)C(C(=O)OCC)C1c1ccc(Cl)cc1 (configuration not stated)
2.07,CC(C)(C)n1nc2c(c1NC(=O)COc1ccc(Cl)cc1)CS(=O)(=O)C2
0.25,O=C(c1ccc(S(=O)(=O)N2CCOCC2)cc1)N1CCN=C1SCc1ccccc1
-1.02,CC(C)c1ccccc1OCC(=O)NCCc1nc2ccccc2[nH]1
-0.46,O=C(Nc1ccc(O)c(-c2nc3ccccc3s2)c1)c1cccnc1
0.2,CCOC(=O)c1sc(C)c(C(=O)NC2CCCCC2)c1N

2 entries from above, in markdown.
| SMILES | Measles inh |
| --- | --- |
| COCC(O)Cn1c2ccccc2c2ccccc21 (configuration not stated) | -0.57 |
| Cc1ccc2c(c1)C(C)(c1ccccc1)CC(C)(C)N2C(=O)CN1C(=O)C2CCCCC2C1=O (configuration not stated) | -0.17 |

The listing continues:
Measles inh,Molecule
-0.5,O=C(Cn1cnc2ccccc2c1=O)NCc1ccccc1
-1.25,CCN(Cc1ccccc1)S(=O)(=O)c1ccc(C(=O)Nc2nnc(C)o2)cc1
-0.59,NC(=O)c1cc2[nH]c3ccccc3c2[n+](-c2ccc([N+](=O)[O-])cc2)c1N
-1.66,C#CC1(O)CCC2C3CCc4cc(O)ccc4C3CCC21C (configuration not stated)
0.75,COC(=O)C1=CN(Cc2ccc(F)cc2)C=C(C(=O)OC)C1c1ccc(C(F)(F)F)cc1
0.6,CCC(=O)NCCSc1c(-c2ccc(F)cc2)[nH]c2ccccc12
-0.57,CCS(=O)(=O)N1CCCC(C(=O)NCCN(C)Cc2ccccc2)C1 (configuration not stated)
-0.48,COc1ccc(-c2cc(C(=O)NCc3cn(C)nc3C)c3ccccc3n2)cc1OC
-1.18,CCSCCOC(=O)C1=C(C)NC2=C(C(=O)CC(c3ccc(Cl)cc3)C2)C1c1ccc(N(C)C)cc1 (configuration not stated)
-0.14,CCCCOc1ccc(Nc2cc(C)nc3ccc(Cl)cc23)cc1
-0.44,CCN(CC)c1cc(C)c2cc(NC(=O)c3ccccc3[N+](=O)[O-])ccc2n1
1.37,CCC(=O)N1CCc2cc(Br)cc(S(=O)(=O)CCC(=O)N3CCC(C)CC3)c21
-0.68,Cc1ccc(OCc2nc(-c3cccnc3)no2)c(C)c1
0.96,Cn1c(N)c(C(=O)CNc2ccccc2)c(=O)n(C)c1=O
-0.16,COC(=O)CSc1cc([N+](=O)[O-])cc2c1c(C1OCCS1)nn2-c1ccccc1 (configuration not stated)
0.67,c1ccc(Cc2nc(N3CCCC3)c3c4c(sc3n2)CCCC4)cc1
0.62,CNC(=O)c1ccc(CS(=O)(=O)c2ccc(Cl)cc2)o1
-0.73,O=C(Nc1cccc2ccccc12)c1ccc2c(c1)C(=O)N(c1ccc(I)cc1)C2=O
0.44,COc1ccc(Br)cc1C1C(N2C(=O)c3ccc([N+](=O)[O-])cc3C2=O)C(=O)N1c1ccc(C)cc1C (configuration not stated)
0.04,Oc1ccccc1NCc1nc2ccccc2n1Cc1ccccc1Cl
0,Cc1ccc2nc(SCC(=O)Nc3ccc([N+](=O)[O-])cc3)[nH]c2c1
0.73,O=C(CSc1nc2c(c(=O)n1-c1ccc(F)cc1)SCC2)Nc1ccc2c(c1)OCCO2
-0.03,CCOC(=O)c1ccc(N2CCN(c3ccc(OC)cc3)CC2)c([N+](=O)[O-])c1
0.3,COCCn1c(=S)[nH]c2cc(C(=O)NCCc3ccccc3)ccc2c1=O
0.87,Cc1ccc(NC(=O)CC2SC(=NC3CCCCC3)NC2=O)c(C)c1 (configuration not stated)
-0.32,COc1ccc(C2CC(=O)C3=C(C2)Nc2ccccc2NC3c2ccccc2OC(C)C)cc1OC (configuration not stated)
-1.11,CCOc1ccccc1CN1C(=O)c2ccccc2C1C(=O)NCCc1ccccc1 (configuration not stated)
-0.03,O=C(c1cccc2ccccc12)n1c(=O)oc2ccccc21
-1.33,COCCN1C(=O)c2ccccc2C(C(=O)Nc2ccc(Oc3ccccc3)cc2)C1c1c[nH]c2ccccc12 (configuration not stated)
0.84,COC(=O)C1=C(C)N(C)C(C)=C(C(=O)OC)C1c1ccc(C)s1
-0.21,COc1cc(Cl)c(C)cc1NC(=O)C1c2ccccc2C(=O)N(C)C1c1cccs1 (configuration not stated)
0.19,COc1cccc2c1OC1(C)NC(=O)NC2C1C(=O)Nc1ccc(Cl)cc1 (configuration not stated)
0.65,CC1=C(C(=O)OC2CCCC2)C(c2ccc(C)o2)C2=C(CC(c3cccs3)CC2=O)N1 (configuration not stated)
2.64,O=C(O)c1cccc(NS(=O)(=O)c2cccc(C(=O)O)c2)c1
0.64,Cc1ccc(NC(=O)Cn2ncc3c(=O)oc4ccccc4c32)c(Br)c1
0.19,Nc1c(C(=O)c2ccc3c(c2)OCO3)sc2nc(-c3cccnc3)ccc12
-0.04,Cc1cccc(C)c1Nc1c(CN2C(=O)c3ccccc3C2=O)nc2ccc(Br)cn12
2.53,Cc1cccc(Oc2cc(NC(=O)c3cccc(Br)c3)cc([N+](=O)[O-])c2)c1
-0.96,Cc1ccc(C(=O)Oc2cc(N)n(S(=O)(=O)c3ccc(Cl)cc3)n2)cc1
0.16,N#Cc1c(N)c(C(=O)c2ccccc2)n2c1CCCC2
0.9,CCOc1ccc2nc(NC(=O)C3CCN(S(=O)(=O)c4cccnc4)CC3)sc2c1
0.01,COc1ccc(C2CC(C(F)(F)F)n3ncc(C(=O)N4CCc5cc(OC)c(OC)cc5C4C)c3N2)cc1OC (configuration not stated)
1.94,O=C(Nc1ccc(OC(F)(F)Cl)cc1)c1cc2ccccc2oc1=O
